Screening data as filed in PubChem BioAssay.
KCNQ2 block – KCNQ2 potassium channel inhibitors, primary screen, cell-based, CHO-K1, FluxOR thallium flux, B-score (AID 2156) | Potassium voltage-gated channel subfamily KQT member 2 (Rattus norvegicus), O88943 | 20 min; active compounds read low; only compounds with negative scores are shown here; some inactives read as strong as hits | B-score at 10 µM | 310,000 tested, 1.1% active;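 active = fluorescence ratio B-score at most minus 3 library SDs, with starting brightness B-score within 2 library SDs, cut at about -5.5 in these data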
Target sequence (O88943 whole entry, looked up): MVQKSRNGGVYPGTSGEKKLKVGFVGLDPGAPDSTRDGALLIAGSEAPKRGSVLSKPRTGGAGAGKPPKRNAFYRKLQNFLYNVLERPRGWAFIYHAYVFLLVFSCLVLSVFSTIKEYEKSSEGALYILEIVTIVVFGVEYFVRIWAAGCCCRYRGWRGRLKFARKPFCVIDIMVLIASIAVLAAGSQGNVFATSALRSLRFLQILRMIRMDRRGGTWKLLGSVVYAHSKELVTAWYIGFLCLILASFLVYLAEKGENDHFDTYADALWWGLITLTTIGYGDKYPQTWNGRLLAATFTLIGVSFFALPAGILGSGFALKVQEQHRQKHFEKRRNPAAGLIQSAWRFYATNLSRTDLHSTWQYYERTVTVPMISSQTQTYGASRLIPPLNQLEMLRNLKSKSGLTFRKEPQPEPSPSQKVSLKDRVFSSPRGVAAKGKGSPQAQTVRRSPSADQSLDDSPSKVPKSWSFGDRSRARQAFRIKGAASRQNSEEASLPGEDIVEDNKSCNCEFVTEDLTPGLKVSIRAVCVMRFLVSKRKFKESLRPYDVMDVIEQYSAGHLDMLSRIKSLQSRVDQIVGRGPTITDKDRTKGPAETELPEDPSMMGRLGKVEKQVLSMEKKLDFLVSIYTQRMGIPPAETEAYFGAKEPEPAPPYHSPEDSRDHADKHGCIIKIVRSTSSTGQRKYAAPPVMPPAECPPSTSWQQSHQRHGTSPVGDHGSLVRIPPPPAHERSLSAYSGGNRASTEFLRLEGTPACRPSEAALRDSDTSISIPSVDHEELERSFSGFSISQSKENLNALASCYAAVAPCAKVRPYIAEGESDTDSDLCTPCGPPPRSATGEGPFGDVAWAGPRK
KCNQ2 block baseline – second read-out of KCNQ2 block, no call of its own (marks repeat the call); B-score; measured here: initial fluorescence intensity artifact check;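 brightness before thallium and not channel activity; 0 = typical well and far values either way flag optical interference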
Starred values were filed as active, the others as inactive; i = inactive. Some of the compounds tested, so the mix of outcomes need not match the whole.

SMILES	KCNQ2 block	KCNQ2 block baseline
Cc1cc(N2CCN(C)CC2)nc2ccc(NC(=O)c3ccccc3F)cc12	i	-0.56
CCOC(=O)CSc1nc(-c2ccc3c(c2)OCO3)ccc1C#N	i	-0.46
CCCCC(=O)N/C(N)=N/c1nc2ccccc2o1	i	-0.17
CCC(=O)N1c2ccccc2NC2=C(C(=O)CC(C)(C)C2)C1c1ccc(O)c(OC)c1 (stereo not drawn)	i	-1
Cc1ccc2nc(/C(C#N)=C\c3ccc(N4CCCCC4)c([N+](=O)[O-])c3)[nH]c2c1	i	-2.81
Cc1ccccc1OCC(O)Cn1c(N2CCN(c3ccccc3)CC2)nc2c1c(=O)[nH]c(=O)n2C (stereo not drawn)	i	0.11
Cc1cc(NC(=O)c2ocnc2C)no1	i	0.6
CO/N=C/NC(=O)c1cn(-c2ccc(F)cc2)c(=O)c2ccccc12	i	-0.85
Cc1ccc(CNC(=O)CNS(=O)(=O)c2ccc(Br)s2)cc1	i	-0.43
COc1ccc(OC)c(NS(=O)(=O)c2ccc3c(c2)n(C)c(=O)n3C)c1	i	-1.19
CC(=O)c1cnc2c(-c3ccccc3)c(-c3ccccc3)nn2c1C	i	-0.95
COc1ccc(NC(=O)c2sc3nc(C)nc(N4CCN(c5ccccn5)CC4)c3c2C)cc1Cl	i	-2.18
CCOC(=O)C(NC(=O)c1ccccc1F)(Nc1cc(C)on1)C(F)(F)F (stereo not drawn)	i	-1.34
COCCN(C(=O)Cn1nnc2ccccc21)C(C(=O)NC1CCCC1)c1cc(OC)ccc1OC (stereo not drawn)	i	-0.58
CCOc1ccccc1NC(=O)N1CCCC(c2nc3c(nnn3Cc3ccc(C)cc3)c(=O)[nH]2)C1 (stereo not drawn)	i	-1.02
COc1ccc(NS(=O)(=O)c2csc(C(N)=O)c2)cc1OC	i	0.86
Cc1cc(C)c2c(CC(=O)Nc3ccc(Cl)cn3)coc2c1	i	-0.03
COc1c(Cl)cc(Cl)cc1C(=O)Nc1ccc(NC(C)=O)cc1	i	1.24
COc1ccc(/C=C(/NC(=O)c2ccco2)C(=O)NCCc2ccccc2)cc1	i	1.35
CCN(C(=O)COC(=O)c1cnc(C)cn1)C1CCS(=O)(=O)C1 (stereo not drawn)	i	-0.52
O=C(c1cc2ccccc2o1)N1CCCCCC1	i	0.73
CCOc1cc(CN2CCCC(C(=O)c3cccc(C(F)(F)F)c3)C2)ccc1O (stereo not drawn)	i	0.6
COc1cccc(/C=N/NC(=O)c2ccoc2C)c1	i	0.89
COc1ccc(-n2nc(C(N)=O)c(O)cc2=O)cc1	i	-0.21
Cc1cccc(OC2(c3ccccc3)OC(=O)c3ccccc32)c1C (stereo not drawn)	i	-1.83

Entries from the list above that contain an aryl methoxy group, in the order listed:
SMILES	KCNQ2 block	KCNQ2 block baseline
CCC(=O)N1c2ccccc2NC2=C(C(=O)CC(C)(C)C2)C1c1ccc(O)c(OC)c1 (stereo not drawn)	i	-1
COc1ccc(OC)c(NS(=O)(=O)c2ccc3c(c2)n(C)c(=O)n3C)c1	i	-1.19
COc1ccc(NC(=O)c2sc3nc(C)nc(N4CCN(c5ccccn5)CC4)c3c2C)cc1Cl	i	-2.18
COCCN(C(=O)Cn1nnc2ccccc21)C(C(=O)NC1CCCC1)c1cc(OC)ccc1OC (stereo not drawn)	i	-0.58
COc1ccc(NS(=O)(=O)c2csc(C(N)=O)c2)cc1OC	i	0.86
COc1c(Cl)cc(Cl)cc1C(=O)Nc1ccc(NC(C)=O)cc1	i	1.24
COc1ccc(/C=C(/NC(=O)c2ccco2)C(=O)NCCc2ccccc2)cc1	i	1.35
COc1cccc(/C=N/NC(=O)c2ccoc2C)c1	i	0.89
COc1ccc(-n2nc(C(N)=O)c(O)cc2=O)cc1	i	-0.21

Rewritten with two lines to a compound: entries from further up
Results follow in this order: KCNQ2 block	KCNQ2 block baseline
CCOC(=O)CSc1nc(-c2ccc3c(c2)OCO3)ccc1C#N
→ i	-0.46
COc1ccc(OC)c(NS(=O)(=O)c2ccc3c(c2)n(C)c(=O)n3C)c1
→ i	-1.19
COc1c(Cl)cc(Cl)cc1C(=O)Nc1ccc(NC(C)=O)cc1
→ i	1.24
COc1ccc(-n2nc(C(N)=O)c(O)cc2=O)cc1
→ i	-0.21
Cc1ccc2nc(/C(C#N)=C\c3ccc(N4CCCCC4)c([N+](=O)[O-])c3)[nH]c2c1
→ i	-2.81

Other structures:
SMILES	KCNQ2 block	KCNQ2 block baseline
Cc1ccc(N(Cc2cc3cccc(C)c3[nH]c2=O)S(=O)(=O)c2ccccc2)c(C)c1	i	2.14
CC(C)CN(CC(C)C)C(=O)c1cc(S(=O)(=O)N2CCCCC2)c[nH]1	i	-1.55
Cc1c([N+](=O)[O-])c(C/C=N/O)nn1C	i	0.02
CCOC(=O)C1CCN(c2nc3cc(OC)ccc3cc2C#N)CC1	i	0.12
COc1ccc(Oc2cccc(Cl)c2CNC(=O)c2ccccc2C(=O)O)cc1	i	-0.22
CN(CC(=O)Nc1ccc(F)cc1)C(=O)CSc1nccn1C	i	-0.11
COc1ccccc1CNC(=O)C1CCCCN1S(=O)(=O)c1ccccc1 (stereo not drawn)	i	0.43
CCOCCCN(C(=O)c1snc(C(N)=O)c1N)C(C(=O)NC1CCCC1)c1ccc(F)cc1 (stereo not drawn)	i	0.02
CCOc1ccccc1NC(=O)C1C2CCC3C(CCC21)C3(Cl)Cl (stereo not drawn)	i	-1.93
COc1ccc(N(C(=O)c2cccnc2)S(=O)(=O)c2cc(OC)ccc2OC)cc1	i	0.94
CCCCn1nnc(NC(=O)c2ccc(-c3ccccc3)cc2)n1	i	2.27
CCCc1cc(=O)[nH]c(SCc2nc3ccccc3s2)n1	i	0.91
COC(=O)c1ccc(Cn2nnc3c(=O)[nH]c(C4CCCN(S(=O)(=O)c5ccc(C)cc5)C4)nc32)cc1 (stereo not drawn)	i	-1.97
O=C(OCc1cnc(Cl)s1)c1ccc(Cl)cc1	i	-1.18
Cc1cnc(C(=O)OCC(=O)c2ccc(Cl)cc2)cn1	i	1.26
Cc1cccc(C)c1NC(=S)N(Cc1cccs1)C1CCCC1	i	1.22
COc1ccc(NC(=O)N2c3ccccc3CC2C)cc1OC (stereo not drawn)	i	-0.54
Cc1cc(CN(C)C(=O)CCc2nnc(Cc3cccc(C(F)(F)F)c3)o2)on1	i	1.7
Cc1oc2cc(OCc3cnn(-c4ccccc4)c3)ccc2c(=O)c1Oc1ccccc1F	i	-0.01
Cc1ccc(S(=O)(=O)N2CCN(CC(=O)N/N=C\c3ccncc3)CC2)cc1	i	-0.04
Cc1oc(-c2ccccc2F)nc1CN1CCC(C(=O)NCc2ccco2)CC1	i	1.22
Cc1cc(/C=c2\sc3nc4ccccc4n3c2=O)c(C)n1-c1ccc(C(=O)O)cc1	i	-0.45
O=C(COC(=O)Cn1nnc2ccccc21)NC1CCCC1	i	0.72
C(=N\Nc1ccc2nncn2n1)/c1ccccn1	i	-0.69
COc1cc(OC)c(S(=O)(=O)N2CCCCC2)cc1S(=O)(=O)N1CCCCC1	i	-0.4
More compounds
SMILES	KCNQ2 block	KCNQ2 block baseline
S=C(NCC1COc2ccccc2O1)Nc1ccc(Br)cc1 (stereo not drawn)	i	0.8
CCOCCCNC(=O)C(NC(=O)Cc1c[nH]c2ccccc12)c1ccccc1 (stereo not drawn)	i	-0.07
COc1ccc(OC)c(C2CC(=O)N3CN(c4cccc(Cl)c4C)CSC3=C2C#N)c1 (stereo not drawn)	i	0.78
Cc1ccc(CNC(=O)Nc2ccc(F)cc2F)n1C	i	-1.91
CC1=C(c2ccccc2)SC2=NCCN21	i	0.61
Cc1cc2ccccc2n2c(SCC(=O)N3CCc4ccccc4C3)nnc12	i	0.95
Cc1ccc(S(=O)(=O)CCc2nnc(NC(=O)c3cnccn3)s2)cc1	i	0.59
CCOC(=O)c1ccc(NC(=O)/C=C/c2cccs2)cc1	i	-1.12
Cc1ccc(C(=O)N(Cc2sccc2C)C2CCS(=O)(=O)C2)cc1 (stereo not drawn)	i	-0.32
O=C(CSc1ncn[nH]1)OCN1C(=O)c2ccccc2C1=O	i	0.46
O=C1C(c2ccncc2)=C(O)c2ccccc21	i	-0.28
Cc1ccc(C)c(NC(=O)c2cnn3ccccc23)c1	i	0.75
C[C@H](NC(=O)CCn1nnc2ccccc2c1=O)C(=O)O	i	-0.81
Cc1nc(NC(=O)COC(=O)CCS(=O)(=O)c2ccccc2Cl)c(Cl)cc1Cl	i	0.22
Cc1cc2c(c(/C=C/C(=O)c3ccccc3)c1)OC1(C=C2)Oc2ccccc2C(=O)N1C (stereo not drawn)	i	-2.57
Cc1ccc2nc(CCc3nc4ccc(C)cc4[nH]3)[nH]c2c1	i	0.54
COc1cc2c(cc1OC)C1CC(=O)C(CC(C)C)CN1CC2 (stereo not drawn)	i	0.63
COc1cccc(/C=C2\N=C(c3c(-c4ccccc4)noc3C)OC2=O)c1OC	i	0.89
NS(=O)(=O)c1ccc(CNC(=O)c2ccc(Cl)c([N+](=O)[O-])c2)cc1	i	0.19
CN(C=C1C(=O)CC(C)(C)CC1=O)CCN1CCNCC1	i	1.72
COC(=O)c1c(C(=O)OC)c(-c2cccc(Cl)c2)n2c1CS(=O)C2 (stereo not drawn)	i	-0.79
COc1ccc(CNC(=O)c2c(O)c3cccc4c3n(c2=O)CCC4)cc1	i	-0.7
CC(CCc1ccco1)NC(=O)Cn1ncc2c1-c1ccccc1OC2 (stereo not drawn)	i	1.33
C/C(N)=N\S(=O)(=O)c1ccc(Cl)cc1	i	1.45
COc1ccc(-c2cn(Cc3ccc4c(c3)C(=O)c3ccccc3C4=O)nn2)cc1	i	-1.96
(further entries)
SMILES	KCNQ2 block	KCNQ2 block baseline
O=C1COc2ccc(NC(=O)c3ccccc3C(=O)O)cc2N1	i	-0.36
C=C(C)COc1ccc2c(C)c(CCC(=O)N3C[C@H]4C[C@@H](C3)c3cccc(=O)n3C4)c(=O)oc2c1	i	2.31
O=C1CSC(c2ccc(Cl)cc2)N1Nc1nc(N2CCOCC2)nc(N2CCOCC2)n1 (stereo not drawn)	i	0.08
O=C(N/N=C/c1ccncc1)c1cc(C2CC2)nc2ccccc12	i	-1.48
N=C1/C(=C\c2coc3ccccc3c2=O)C(=O)N=C2SC=CN12	i	1.1
Clc1ccc(-n2nnnc2SCc2c(-c3ccccc3)nc3sccn23)cc1	i	0.52
COC(=O)c1c(NC(=O)CN2C(=O)NC3(CCc4ccccc4C3)C2=O)sc2c1CCCCC2 (stereo not drawn)	i	2.09
O=C(c1ccco1)N1CCN(Cc2ccc(F)cc2)CC1	i	2.29
COc1cc(-c2noc(CCC(=O)NC3CCCC3)n2)cc(OC)c1OC	i	0.83
COc1cccc(OC)c1C(=O)Nc1ccccc1C(=O)N1CCCCCC1	i	0.56
Cc1ccc(C(=O)Nc2ccc(N3CCN(C)CC3)cc2)cc1C	i	-0.01
COc1ccc(C(C)(C)C)cc1S(=O)(=O)n1ccnc1C	i	-1.1
COc1cccc(CNC(C)(C)CO)c1OCc1ccc(Cl)cc1	i	0.04
COc1ccc(C(=O)C2CCCN(Cc3c[nH]c4ccccc34)C2)c(OC)c1 (stereo not drawn)	i	-0.02
COc1ccc(/C=N/Nc2nnc(-c3ncc[nH]3)c3ccccc23)cc1	i	-0.77
Cc1cccc(C(=O)NC2=NCCS2)c1	i	-0.55
CCOC(=O)c1cc(=O)n2nc(-c3ccc(C)cc3)nc2s1	i	-0.01
CCOC(=O)c1cnc2ccc(OCC)cc2c1N(C)Cc1ccccc1	i	0.63
CCOC(=O)CSc1nnc([C@H](C)NC(=O)OC(C)(C)C)o1	i	1.11
O/N=C1/CCc2nonc2/C1=N/O	i	0.43
CCOCC(=O)Nc1cc(C(=O)Nc2ccc(F)cc2)ccc1Cl	i	0.41
O=C(CCc1ccccc1F)N1CCN(c2ccccc2)CC1	i	0.01
CCC(=O)N(Cc1ccco1)c1nc(-c2ccc(OC)cc2)cs1	i	-0.64
COc1cc(O)c2c(=O)cc(-c3ccccc3)oc2c1	i	0.28
O=C(CSCc1ccccc1Br)N/N=C/c1ccc2c(c1)OCO2	i	0.07
The results go on.
SMILES	KCNQ2 block	KCNQ2 block baseline
CCN(Cc1ccccc1)C(=O)CN1C(=S)NC(C)(C)CC1C (stereo not drawn)	i	-0.13
COc1cc(C(=O)NCCCNc2nc3cc(C)cc(C)c3cc2C#N)cc(OC)c1OC	i	-0.06
C/C(=C\c1ccc(C)o1)C(=O)c1c(C)cc(C)[nH]c1=O	i	-0.05
COc1ccc(-c2cc(C(F)(F)F)n3nc(C(=O)O)cc3n2)cc1OC	i	3.91
COc1cc([N+](=O)[O-])ccc1NC(=O)CSc1nc2ccccc2n1-c1ccccc1	i	0.06
COC(=O)c1sc(NC(=O)CSc2nnc(C(C)C)n2C)nc1C	i	0.39
COc1ccc(CCNC(=O)COc2ccc(C)nc2[N+](=O)[O-])cc1	i	-1.74
CCOC(=O)/C(=C/c1ccc(F)cc1)NC(C)=O	i	-3.33
Cc1nn(-c2ccccc2)c(N)c1C1(O)C(=O)Nc2ccccc21 (stereo not drawn)	i	-0.56
O=P(Cc1ccncc1)(c1ccccc1)c1ccccc1	i	0.64
COc1cc(CC(=O)NCC(C)(C)N2CCOCC2)cc(OC)c1OC	i	0.02
C=CCn1c(C)nnc1SCC(=O)Nc1nc(C)c(C(=O)N(C)C)s1	i	2.8
COc1cc(-c2nnc(SCc3cccnc3)n2C)cc(OC)c1O	i	-0.16
CN(C)S(=O)(=O)c1ccc(Cl)c(C(=O)Nc2cccc([N+](=O)[O-])c2)c1	i	-1.36
CCOC(=O)c1ccc(NC(=O)c2nc[nH]c2C(=O)N[C@@H](C)C(=O)OC(C)(C)C)cc1	i	1.36
CC(NC(=O)c1cncc(Br)c1)c1ccc(S(N)(=O)=O)cc1 (stereo not drawn)	i	-0.88
COc1ccc(CNC(=S)Nc2ccc(Br)cc2)cc1	i	2.96
Cc1cc(C(=O)c2ccc3ccccc3c2)c(C)o1	i	-1.28
CC(C)(C)c1ccc(C(=O)OCC(=O)Nc2sc3c(c2C#N)CCC3)cc1	i	2
